Screening results (PubChem)
TRPV1 potentiator = HTS Assay for Compounds that Act as Potentiators of the Vanilloid Receptor 1 | Transient receptor potential cation channel subfamily V member 1 (Homo sapiens), Q8NER1 | TRPV1-expressing cells, Fluo-8 calcium influx, capsaicin EC20 potentiation; host cell line not named in the record; control for the full effect not named in the record | potentiation, % at 8.33 µM | 320,000 compounds, 0.02% hits | AID 540277, 2011; active means potentiation above 80%; inconclusive means 30% to 80%; inactive means below 30%; also: 0% is about no effect
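Fluo-8 calcium influx in TRPV1-expressing cells, kinetic read (ex 480/em 520 nm). Compound added and read 3 min for agonist activity, followed by capsaicin at EC20 final and 2 min further read for enhancement.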
Six1-Eya2 inh = qHTS Assay for Inhibitors of the Six1/Eya2 Interaction; Homeobox protein SIX1 (Homo sapiens) + Protein phosphatase EYA2 (Homo sapiens), …; 360,000 compounds, 0.56% hits; activity change, % (no concentration beside the values); AlphaScreen GST-Six1/His-Eya2 binding, biochemical; stronger effect = lower value; control for the full effect not named in the record; in the data active = activity change below about -65%; inconclusive = about -30% to -65%; inactive = above about -30%; also: % is scaled to controls: 0 for no effect and ±100 for the full control effect
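Compounds are tested against tagged Six1 and Eya2 proteins bridged by glutathione donor and nickel acceptor beads; after a one-hour incubation at 37 °C without light, AlphaScreen emission is recorded.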
D2 potentiator = Beta-Arrestin HTS for Positive Allosteric Modulators of the Human D2 Dopamine Receptor: Potentiators | D(2) dopamine receptor (Homo sapiens), P14416 | DiscoveRx D2 beta-arrestin cells, luminescence, 90 min; 100% = 57 uM dopamine signal | potentiation, % (test concentration not listed) | 360,000 compounds, 0.23% hits; active = potentiation of 50% or more; inconclusive = 30% to 50%; inactive = 30% or less;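 also: compound concentration not given in the record; tested on top of an EC20 dose of dopamine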
Target sequence (P14416 whole entry, looked up): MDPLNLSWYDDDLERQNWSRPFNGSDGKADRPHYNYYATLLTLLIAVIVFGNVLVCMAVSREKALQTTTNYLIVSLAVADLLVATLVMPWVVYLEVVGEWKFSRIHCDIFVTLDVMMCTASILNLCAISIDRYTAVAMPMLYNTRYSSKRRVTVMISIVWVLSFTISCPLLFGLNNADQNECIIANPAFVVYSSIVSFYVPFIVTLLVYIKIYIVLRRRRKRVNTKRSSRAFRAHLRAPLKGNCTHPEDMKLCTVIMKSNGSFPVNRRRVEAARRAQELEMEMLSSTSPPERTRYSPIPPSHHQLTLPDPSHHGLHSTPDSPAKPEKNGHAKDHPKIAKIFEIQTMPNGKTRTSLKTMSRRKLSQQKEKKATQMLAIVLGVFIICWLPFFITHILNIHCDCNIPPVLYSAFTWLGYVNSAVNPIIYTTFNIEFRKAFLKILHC
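PathHunter beta-arrestin assay in DiscoveRx D2 cells. Compounds were added with an EC20 of dopamine (50 nM final) for 90 min at 37 deg C. Luminescence was read 1 h after detection reagent, with 57 uM dopamine as the EC100 control.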
CtBP-E1A inh = qHTS Assay for Inhibitors of the CtBP/E1A Interaction; CtBP / adenovirus E1A interaction (AlphaScreen); AlphaScreen GST-E1A/His-CtBP binding, 1536-well; stronger effect = lower value; control for the full effect not named in the record; activity change, % (concentration not given with the values); 340,000 compounds, 0.49% hits; AID 651724, 2012; in the data active means activity change below about -65%; inconclusive means about -30% to -65%; inactive means above about -30%; also: % is scaled to controls: 0 for no effect and ±100 for the full control effect
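GST-E1A and His-tagged CtBP (125 nM each as 5X stock) were preincubated with pin-transferred compound for 2 h at 37 °C in the dark, then glutathione donor and nickel acceptor beads were added for 1 h before AlphaScreen reading.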
TRPML1 ag = qHTS for Agonists of the Human Mucolipin Transient Receptor Potential 1 (TRPML1); AID 624414, 2012; activation, % (no concentration beside the values); 410,000 compounds, 0.12% hits; Mucolipin-1 (Homo sapiens), Q9GZU1; TRPML1-expressing cells, Ca2+ dye fluorescence, FDSS; host cell line not named in the record; reference of the full effect not given here; in the data active = activation above about 50%; inconclusive = about 30% to 50%; inactive = below about 30%; also: 0% is about no effect; the text of the record puts the active cut at 80%
Target sequence (Q9GZU1 whole entry, looked up): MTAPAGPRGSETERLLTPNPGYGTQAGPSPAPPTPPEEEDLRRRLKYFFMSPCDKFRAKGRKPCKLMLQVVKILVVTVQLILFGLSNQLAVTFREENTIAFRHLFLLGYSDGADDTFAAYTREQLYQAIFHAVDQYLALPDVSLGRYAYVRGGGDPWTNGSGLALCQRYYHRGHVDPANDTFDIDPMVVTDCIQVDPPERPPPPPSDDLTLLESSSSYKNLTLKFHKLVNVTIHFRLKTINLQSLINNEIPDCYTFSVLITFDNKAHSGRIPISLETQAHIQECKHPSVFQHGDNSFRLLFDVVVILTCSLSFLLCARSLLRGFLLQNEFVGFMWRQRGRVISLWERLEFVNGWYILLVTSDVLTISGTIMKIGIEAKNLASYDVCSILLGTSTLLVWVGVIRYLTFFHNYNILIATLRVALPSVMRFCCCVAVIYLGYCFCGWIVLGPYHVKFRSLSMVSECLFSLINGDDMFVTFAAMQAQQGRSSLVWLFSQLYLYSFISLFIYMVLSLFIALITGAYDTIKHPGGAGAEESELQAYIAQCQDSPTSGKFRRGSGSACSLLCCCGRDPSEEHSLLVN
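Cells: TRPML1-DL, 1X Tet inducer, ~16 h at 37 degrees C/5% CO2. Dye: ABD Ca8 no-wash + quencher, 45-90 min RT. Read: 10 s baseline, compound add, 110 s agonist phase; 54-4 EC80 (4uM final), 110 s antagonist phase.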
TRPML1 inh = qHTS for Inhibitors of the Human Mucolipin Transient Receptor Potential 1 (TRPML1); Mucolipin-1 (Homo sapiens), Q9GZU1; TRPML1-inducible cells, Ca2+ dye fluorescence, FDSS; stronger effect = lower value; inhibition of EC80 agonist-evoked calcium signal; activity change, negative = inhibition, % (no concentration beside the values); 390,000 compounds, 0.02% hits; in the data active means activity change below about -50%; inconclusive means about -30% to -50%; inactive means above about -30%;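 also: stimulus is agonist 54-4 at its EC80 concentration; % is scaled to controls: 0 for no effect and ±100 for the full control effect; compound concentration not given in the record; the text of the record puts the active cut at -80%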
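Calcium fluorescence in TRPML1-DL cells induced overnight with Tet: a 110 s read after compound pin addition, then a 110 s antagonist read after challenge with 54-4 at 4 uM final (EC80).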
* hit, by the source's call; ? = inconclusive; . = not tested or not shown; & = joins results of further samples. Rows were taken by chance (roughly 0.95% active in at least one column).

SMILES	TRPV1 potentiator	Six1-Eya2 inh	D2 potentiator	CtBP-E1A inh	TRPML1 ag	TRPML1 inh
COc1ccc(-n2nc(C(=O)NCC(=O)N3CCN(Cc4ccccc4)CC3)c3ccccc3c2=O)c(OC)c1	10	-12	-6	-3	1.3	10
O=C(NCCCN1CCOCC1)C1CC(=O)N(c2ccccc2)C1 (configuration not stated)	3	-10	-7	13	0.5	-8
CCCCCCCN1C(N(C)C)=NC[C@@H]1Cc1ccccc1	-7	2	-12	-3	0.1	36
Cc1ccc(S(=O)(=O)N(C)CCCC(=O)Nc2cccc3ccccc23)cc1	6	-6	-3	7	-0.2	1
CCc1cc(C(=O)N2CCCC(C(=O)c3ccc(C(F)(F)F)cc3)C2)n(C)n1 (configuration not stated)	9	4	0	6	-0.6	40
CC12CCCC(C(C#N)C(N)=O)(C1)NC(=O)C2C#N (configuration not stated)	.	12	-11	-13	0.5	-10
COc1ccc([C@H]2C=C(C(=O)O)O[C@@H](OCCCCO)C2)cc1	15	-11	-6	-18	-0.2	-3
Cc1ccc(-n2ccc(=O)c(C(=O)O)n2)cc1	0	3	-20	19	-0.3	85
Cc1cccc(C)c1OCC(=O)Nc1ccccc1C(=O)N1CCOCC1	2	7	-13	-2	0.7	-2
CC1C(=O)CCC1(C(=O)O)c1ccccc1 (configuration not stated)	-6	13	8	0	-0.3	-1
COc1c(N2CCN(C(=S)NCc3ccccc3)C(C)C2)c(F)cc2c(=O)c(C(=O)O)cn(C3CC3)c12 (configuration not stated)	3	-6	-8	-2	-0.1	-1
CCc1ccc(OCC(=O)NCCN(C)C)c(Br)c1	3	17	-34	-7	0.3	29
CCN(CC)Cc1ccccc1Sc1ccccc1	-7	2	-9	13	0.3	23
CC12CC3CC(C)(C1)CC(C(=O)N1CCN(C(=O)C4CCCO4)CC1)(C3)C2 (configuration not stated)	-15	7	1	3	-0.2	-5
COCCSc1nnc(NC(=O)c2cc(C(=O)OC)cc([N+](=O)[O-])c2)s1	2	12	-35	19	0.1	10
CCCOc1ccc(N2C(=O)CC(SC(=NC)Nc3ccc(F)cc3)C2=O)cc1 (configuration not stated)	1	-1	8	1	1.6	-17
S=C(NCCc1ccccc1)N1CCN(C23CC4CC(CC(C4)C2)C3)CC1	-10	1	-26	-8	4.1	16
CC(=O)N1Cc2ccccc2CC1C(=O)O (configuration not stated)	2	-3	-3	-3	-0.9	-19
Cc1ccc(S(=O)(=O)N[C@H](C(=O)OCC(=O)NC(=O)c2cccn2C)C(C)C)cc1	.	-15	-8	-19	-1.2	-9
Cn1c2ccccc2c(=O)c2cc(C#CC3=CCCCC3)ccc21	-6	-13	-3	-9	0.0	11

Some of these compounds in order of length of the SMILES, rising.
SMILES	TRPV1 potentiator	Six1-Eya2 inh	D2 potentiator	CtBP-E1A inh	TRPML1 ag	TRPML1 inh
CCN(CC)Cc1ccccc1Sc1ccccc1	-7	2	-9	13	0.3	23
CC(=O)N1Cc2ccccc2CC1C(=O)O (configuration not stated)	2	-3	-3	-3	-0.9	-19
CC1C(=O)CCC1(C(=O)O)c1ccccc1 (configuration not stated)	-6	13	8	0	-0.3	-1
CCc1ccc(OCC(=O)NCCN(C)C)c(Br)c1	3	17	-34	-7	0.3	29
Cc1ccc(-n2ccc(=O)c(C(=O)O)n2)cc1	0	3	-20	19	-0.3	85
CCCCCCCN1C(N(C)C)=NC[C@@H]1Cc1ccccc1	-7	2	-12	-3	0.1	36
CC12CCCC(C(C#N)C(N)=O)(C1)NC(=O)C2C#N (configuration not stated)	.	12	-11	-13	0.5	-10
Cc1cccc(C)c1OCC(=O)Nc1ccccc1C(=O)N1CCOCC1	2	7	-13	-2	0.7	-2
COc1ccc([C@H]2C=C(C(=O)O)O[C@@H](OCCCCO)C2)cc1	15	-11	-6	-18	-0.2	-3
Cc1ccc(S(=O)(=O)N(C)CCCC(=O)Nc2cccc3ccccc23)cc1	6	-6	-3	7	-0.2	1
CCCOc1ccc(N2C(=O)CC(SC(=NC)Nc3ccc(F)cc3)C2=O)cc1 (configuration not stated)	1	-1	8	1	1.6	-17
COCCSc1nnc(NC(=O)c2cc(C(=O)OC)cc([N+](=O)[O-])c2)s1	2	12	-35	19	0.1	10
CCc1cc(C(=O)N2CCCC(C(=O)c3ccc(C(F)(F)F)cc3)C2)n(C)n1 (configuration not stated)	9	4	0	6	-0.6	40
CC12CC3CC(C)(C1)CC(C(=O)N1CCN(C(=O)C4CCCO4)CC1)(C3)C2 (configuration not stated)	-15	7	1	3	-0.2	-5
COc1c(N2CCN(C(=S)NCc3ccccc3)C(C)C2)c(F)cc2c(=O)c(C(=O)O)cn(C3CC3)c12 (configuration not stated)	3	-6	-8	-2	-0.1	-1

Other entries
SMILES	TRPV1 potentiator	Six1-Eya2 inh	D2 potentiator	CtBP-E1A inh	TRPML1 ag	TRPML1 inh
COCCN(C(=O)CSc1nc(N)cc(=O)[nH]1)c1c(N)n(Cc2ccccc2)c(=O)[nH]c1=O	-6	1	-5	6	-0.2	-8
O=C(CCS(=O)(=O)Cc1ccc(Cl)cc1)NCCc1ccccc1	-2	3	6	1	-0.4	-8
Cc1ccccc1C(=O)NC(=S)N(Cc1ccccc1)c1ccccn1	.	-2	0	.	-0.3	9
S=C(Nc1ccccc1)Nc1ccccc1-n1cccc1	2	-1	-26	.	-0.8	-4
CC1=C(C(=O)N(C)C)CC(CC(=O)NCC2CCCCC2)C(=O)N1CCC1=CCCCC1 (configuration not stated)	.	0	-4	1	-0.7	50
C=CCN(C(=O)CCC(=O)Nc1cc(C)on1)C(C(=O)NC1CCCC1)c1ccc(OC)cc1OC (configuration not stated)	4	14	-3	2	0.7	-3
CC(=O)NCCNc1nc2cc(-c3ccc(C)cc3)sc2c(=O)n1C	.	-6	-1	-9	-0.7	.
COc1ccc(-c2sc(NC(C)=O)nc2-c2ccccc2)cc1	-1	1	5	-9	3.2	7
COc1cc(OC)cc(C(=O)N[C@H](C(=O)OCC(=O)Nc2sccc2C#N)C(C)C)c1	20	-8	-8	-22	2.1	-27
CCOC(=O)C1=C(C)Nc2nc(C)nn2C1c1cc(OC)ccc1OC (configuration not stated)	18	-2	-1	4	-0.1	0
Cc1ccc(C(=O)NCCOc2cccc3cccnc23)cc1Cl	8	1	-14	1	-0.1	-3
COc1ccc(COC(=O)Nc2cc3c(C(F)(F)F)nn(C)c3s2)cc1	?	5	4	26	1.1	11
CCc1cc2c(N[C@@H](C)C(=O)O)ncnc2s1	-5	4	-2	-1	0.1	-1
Cc1ccsc1-c1nc(CSCC(=O)NCCN2CCCC2)c(C)o1	5	3	-12	-4	0.0	32
COc1cc(OC)c2c(-c3ccccc3)cc(=O)oc2c1C(CCN1CCOCC1)c1ccc(N(C)C)cc1 (configuration not stated)	.	?	-14	?	1.5	38
CC(CCc1ccccc1)N(C)CC(O)c1cccc([N+](=O)[O-])c1 (configuration not stated)	-2	-12	-10	-4	0.9	52
COc1ccc(NC(=O)CCNS(=O)(=O)c2ccc3c(c2)CC(C)N3C(=O)C2CC2)cc1 (configuration not stated)	4	-1	-10	-2	0.3	1
CCOC(=O)c1cc(C(=O)n2cc(Cl)cn2)nn1C	-5	1	-8	4	-0.3	16
CSc1ccccc1C(=O)OCC(=O)N1CCCCCC1	.	8	-9	4	-0.3	16
COc1ccc(CNC(=O)CCC(=O)Nc2nnc(CC(C)C)s2)cc1	-1	4	-8	0	1.1	-14
CCOc1cc(/C=C2\C(=O)NN(c3ccccc3)C2=O)cc([N+](=O)[O-])c1O	8	-8	-13	-7	-0.4	9
COc1cccc(CN(CC(=O)NCc2ccccc2)C(=O)c2csnn2)c1	8	-2	-3	8	-0.3	-2
Cc1ccc(CN=c2c([N+](=O)[O-])nn(-c3ccc(Cl)cc3)n2O)cc1	14	-7	5	2	0.6	9
Cc1ccn(CC(=O)N2CCCC(Nc3ccc(F)c(F)c3)C2)n1 (configuration not stated)	-11	1	-19	1	-0.4	4
Cc1ccsc1/C=N/NC(=O)c1nnn(-c2nonc2N)c1-c1ccccc1	5	-6	-13	-6	1.0	-11
CC1CCN(C(=O)CCc2nc3cc(S(=O)(=O)N(C)C)ccc3n2C)CC1	3	2	-3	1	-0.6	2
Cc1cccc(S(=O)(=O)N/N=c2\sc3ccccc3n2C)c1	1	-1	6	3	-0.4	7
COC(=O)c1cc2sc(Cl)cc2n1CC(=O)Nc1ccc(OC)c(OC)c1OC	17	-9	-13	?	-0.4	-11
COc1ccc(CCN(C)C2CCCN(S(=O)(=O)c3ccccc3F)C2)cc1OC (configuration not stated)	3	-8	-3	0	0.5	8
Cc1ccccc1NC(=O)c1csc2c1CCCC2	5	9	-5	4	3.3	16
COc1ccc(S(=O)(=O)N2CCCCC2)cc1NC(=O)CN(Cc1ccco1)Cc1ccco1	18	-11	8	-17	2.0	14
COc1ccccc1C(O)c1ncc(-c2cccc3ccccc23)[nH]1 (configuration not stated)	.	-5	-10	-16	-1.0	.
COc1cc2c(cc1Cl)C(=O)C(F)(c1ccccc1)C(=O)N2 (configuration not stated)	-15	-3	-5	-4	-0.2	16
CCOC(=O)c1oc2ccccc2c1NC(=O)c1ccc2c(c1)OCO2	7	5	-14	12	0.1	5
CC(=O)Nc1ccc(S(=O)(=O)NCCN2CCNC2=O)cc1Cl	11	7	-4	3	0.4	-7
CSc1ccc(CCNC(=O)c2ccc(CS(=O)Cc3ccc(Cl)cc3)o2)cc1 (configuration not stated)	-20	-5	-11	-21	-0.4&-0.2	-24&4
Cc1ccc(C(=O)NNC(=O)CCCCC(=O)NNC(=O)c2ccc(C)cc2)cc1	1	0	-3	2	0.2	1
COc1cccc(CNC(=O)C2CCN(S(=O)(=O)c3ccc4c(c3)NC(=O)CO4)CC2)c1	-9	-7	2	-30	-0.4	7
CC(C)N(C(=O)CSc1nnnn1-c1ccc2c(c1)OCO2)C(C)C	7	2	-4	0	-0.1	4
COc1ccc(N2CCN(S(=O)(=O)c3ccc(OC)c(-c4noc(C)n4)c3)CC2)cc1	10	.	.	.	1.8	-14
N#C/C(=N\Nc1ccc(Cl)cc1)C(=O)c1ccsc1	.	-2	-12	14	1.1	3
COc1ccc(N2C(=S)N=C(Nc3ccccc3)C23CCCCC3)cc1	-4	-4	-4	.	1.5	11
CCCn1nnnc1SCC(=O)NCc1cccs1	3	5	-5	3	-0.6	12
CN(CCc1nc2ccc(Cl)cc2[nH]1)Cc1nc(CC2CC2)no1	-1	4	-2	.	0.9	-6
